# Mtb growth: Mycobacterium tuberculosis H37Rv growth inhibition, cell based, confirmatory dose response (AID 1949); M. tuberculosis H37Rv growth inhibition; most inactive calls were filed without a number and no value below 0 was filed; one-dose inhibition, % at 10 µg/mL; IC50 in µg/mL for titrated hits; 100,000 tested, 1.6% active;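 active means confirmed in a dose series; inconclusive means about 50% or more but not retested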;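 further: bacteria grown 7 days with compound before Alamar blue readout; 0% = untreated bacteria and 100% = reference antibiotic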
# * = called active by the depositor; i = inactive; ? = inconclusive. Only part of the results is shown (hit frequency here may not be typical).
Compound | Mtb growth
N#C/C(=C\c1ccc(-c2nc3ccccc3s2)o1)c1nc2ccccc2[nH]1 | 3.2%
Cc1ccc(C(=O)CSc2nc3ccccc3c(=O)n2N)o1 | 2.1%
COc1cccc(NC(=O)COc2ccc3ccccc3c2Br)c1 | 1.0%
Cc1cccc(C(C)C)c1NC(=O)c1cccc(Br)c1 | 6.9%
O=S(=O)(Nc1ccc(F)c(F)c1)c1ccc2c(c1)OCCO2 | i
CCOc1ccc(S(=O)(=O)Nc2ccccc2Br)cc1 | 2.1%
Cc1ccccc1C(=O)NC(Nc1ccc(I)cc1)C(Cl)(Cl)Cl (stereo not drawn) | i
COc1ccc(NC(=O)c2c(NC(=O)c3ccccc3F)sc3c2CCC3)cc1 | i
O=C(Nc1cc(Cl)ccc1Cl)C(=O)N1CCCCC1 | 1.1%
CCOC(=O)c1ccccc1NC(=O)c1cc2ccccc2o1 | i
CCCc1nnc(NC(=O)CSc2nncn2C)s1 | i
O=C(COc1ccc(Cl)cc1Cl)NC1CCS(=O)(=O)C1 (stereo not drawn) | i
O=C(CN(Cc1ccc(Br)cc1)S(=O)(=O)c1ccccc1)Nc1cccc(Cl)c1 | 1.5%
O=C(NCc1ccc2c(c1)OCO2)C(=O)NCc1cccs1 | i
CCOC(=O)C1CCN(C(=O)CN(c2cc(Cl)cc(Cl)c2)S(C)(=O)=O)CC1 | i
Cc1onc(-c2ccccc2)c1C(=O)NCC1CCCO1 (stereo not drawn) | i
Cc1ccc(NC(=O)COc2ccc3c4c(c(=O)oc3c2C)CCCCC4)cc1 | i
Cc1c(C(=O)O)[nH]c2c1C(=O)CC(c1ccc(Cl)cc1)C2 (stereo not drawn) | i
CN(C)c1ccc(-n2nc3ccc(NC(=S)NC(=O)COc4ccccc4)cc3n2)cc1 | i
COC(=O)c1cn(C(=O)COc2cc(C)c(Br)c(C)c2)c2ccccc12 | i
CCOC(=O)c1cnc(SCC(=O)N2CCc3ccccc32)nc1N | i
CCOc1ccc(-c2n[nH]c(=S)c3ccccc23)cc1 | i
CCC1CCCCN1Cc1c(C)[nH]c2ccc(Br)cc2c1=O (stereo not drawn) | 0.3%
Cc1ccc(-n2nc3cc(C)c(N)cc3n2)cc1 | ?
CCc1c(C)sc(NC(=O)C(C)Oc2ccc(Cl)cc2C)c1C(N)=O (stereo not drawn) | i
CC(=O)Nc1ccc(NC(=O)CS(=O)(=O)Cc2ccccc2)cc1 | i
CCN1CCN(C(=O)CN(c2cc(OC)ccc2OC)S(=O)(=O)c2ccc(C)cc2)CC1 | i
FC(F)(F)c1ccccc1CNCc1ccncc1 | i
COCCCN1C(=O)C(O)=C(C(=O)c2ccco2)C1c1cccc(Cl)c1 (stereo not drawn) | 4.6%
COc1ccc(NCC(=O)Nc2cc(C(F)(F)F)cc(NC(=O)CNc3ccc(OC)cc3)c2Cl)cc1 | i
CC(C)(C)c1csc(NC(=O)COc2ccccc2)n1 | i
O=S(=O)(NC1CCCCCCC1)c1ccc(Cl)s1 | 2.7%
CCOC(=O)C(CC)n1cnc2sc3c(c2c1=O)CCC(C)C3 (stereo not drawn) | i
COc1ccc(N(CC(=O)Nc2cccc([N+](=O)[O-])c2C)S(C)(=O)=O)cc1OC | i
Cc1cc(S(=O)(=O)Nc2c(C)nc3nc[nH]n3c2=O)ccc1F | i
O=C(Nc1ccccc1Cl)C1CCN(S(=O)(=O)c2ccc(Cl)cc2)CC1 | i
COC(=O)COc1ccc(S(=O)(=O)Nc2ccc(OC)cc2OC)cc1Cl | i
CCS(=O)(=O)Nc1cc(OC)c(OC)cc1Cc1nccc2cc(OC)c(OC)cc12 | 0.4%
Fc1ccccc1NC(=S)Nc1ccc(Oc2ccccc2)cc1 | 46.1%
CC(=O)Nc1cccc(-c2csc(Nc3ccc(C)cn3)n2)c1 | 46.2%
CCOC(=O)c1c(NC(=O)c2cccc(S(=O)(=O)NCc3ccccc3)c2)sc2c1CCC2 | i
Cc1nnc(SCC(=O)Nc2c(C)cccc2C)s1 | i
COc1ccc(Br)cc1S(=O)(=O)N1CC(C)OC(C)C1 (stereo not drawn) | i
Cc1cc(OCC(=O)Nc2cccc3ccccc23)cc(C)c1Br | i
CCCc1nc2ccccc2c(=O)n1-c1ccc(C(=O)OCC)cc1 | 4.6%
CCCCSc1nnc(NC(=O)CCc2ccccc2)s1 | i
COC(=O)c1ccc(NC(=O)c2cn(-c3ccccc3)nc2-c2cccnc2)cc1 | 1.5%
CCCC(=O)N1CCN(c2ccc(NC(=S)NC(=O)c3cc(C)cc(C)c3)cc2)CC1 | 0.2%
COCCN1C(=O)c2oc3ccc(F)cc3c(=O)c2C1c1ccc([N+](=O)[O-])cc1 (stereo not drawn) | i
O=C(NCc1ccc2c(c1)OCO2)c1cnn2c(C(F)F)cc(-c3ccccc3)nc12 | i
COc1cc(CNC23CC4CC(CC(C4)C2)C3)cc(Br)c1OCC(N)=O | i
CC(=O)N(C)OC(=O)Nc1cccc(Cl)c1 | 0.4%
COc1ccc(N2CCN(C(=S)Nc3cc(OC)cc(OC)c3)CC2)cc1 | i
O=C(CSc1nc2ccccc2c(=O)[nH]1)NCCO | i
CCN1CCN(CCC(=O)Nc2ccc(Br)cc2)CC1 | 0.9%
Cc1cc(NC(=S)NC(=O)c2ccc(Cl)cc2)ccc1Br | i
CSCCC(NC(=O)c1ccccc1)C(=O)NCc1ccco1 (stereo not drawn) | i
CCOc1ccc(S(=O)(=O)NCCC2=CCCCC2)c2ccccc12 | 7.5%
O=C(Nc1cccnc1)c1ccc(-c2ccccc2)cc1 | i
CCOc1ccc(C(=O)Nc2ccccc2OC)cc1OCC | i

# More records.
Compound | Mtb growth
c1ccn2c(c1)nc1c2nc2ccccn21 | 3.7%
Cc1cc(C)nc(N(C#N)S(=O)(=O)c2ccc(Br)cc2)n1 | 6.1%
CC(C)n1c(NCc2cccs2)nc2ccccc21 | 3.6%
CC1CC(C)CN(C(=O)CCCC(=O)N2CC(C)CC(C)C2)C1 (stereo not drawn) | i
Cc1ccc(NC(=O)CSc2nnc(Cc3ccccc3)n2-c2ccc(Cl)cc2)cc1C | i
COc1ccc(NC(=O)CN(C)S(=O)(=O)c2c(C)cc(C)cc2C)c(OC)c1 | i
Cc1cc(Cl)ccc1OC(C)C(=O)Nc1ccc(Cl)c(Cl)c1 (stereo not drawn) | 23.5%
COc1ccc(NC(=O)CC2Nc3ccccc3NC2=O)c(OC)c1 (stereo not drawn) | i
CCc1cccc(CC)c1NC(=O)CC1Sc2ccccc2NC1=O (stereo not drawn) | i
COc1ccc(CCNC(=O)CSc2ncnc3sc4c(c23)CCC4)cc1 | i
CC1=C(C(N)=O)C(c2cccc(Cl)c2Cl)NC(=O)N1 (stereo not drawn) | i
COC(=O)c1ccc(O)c(Sc2cc(C(=O)OC)ccc2O)c1 | i
COc1cc(NC(=O)Cc2cccs2)cc(OC)c1OC | i
CCOC(=O)c1cc(C(C)=O)c(C)[nH]c1=S | i
O=C(Nc1ccc(C(=O)Nc2nccs2)cc1)c1cccc(N2C(=O)CCC2=O)c1 | i
O=C(Nc1cccc(-c2cnc3ccccc3n2)c1)c1cccs1 | 11.0%
Oc1ccc(Cl)cc1C1=NCCNC(C(F)(F)F)=C1 | i
CN1CCN(CCCCSc2ccc(Cl)cc2)CC1 | i
COC(=O)C1=C(C)Nc2c(c(=O)n(C)c(=O)n2C)C1c1ccc(F)cc1 (stereo not drawn) | 3.6%
Cc1ccc(OCCCCN2CCCCCC2)c(I)c1 | i
CC(C)c1ccc([N+](=O)[O-])cc1S(=O)(=O)N1CCN(c2ccc(Cl)c(Cl)c2)CC1 | 7.6%
CS(=O)(=O)N(CC(=O)NC1CCCC1)c1cccc(Br)c1 | i
COc1cc(C2NC(=S)NC(C)=C2C(=O)OC(C)(C)C)cc(OC)c1OC (stereo not drawn) | i
NS(=O)(=O)c1ccc(CCNC(=O)Cc2cccs2)cc1 | i
O=C(CN1CCOCC1)Nc1sc2c(c1C(=O)Nc1ccc(Br)cc1)CCCC2 | 3.7%
CCC(=O)Oc1ccc(C(=O)Nc2ccccc2-c2ccccc2)cc1 | i
C#CCN1C(=O)C(O)(CC(=O)c2ccc(C)o2)c2ccccc21 (stereo not drawn) | 1.5%
Cc1cccc(C(=O)Nc2cc(Cl)ccc2O)c1 | 3.6%
CC(=O)Nc1ccc(S(=O)(=O)N2CCCc3ccccc32)cc1 | i
O=C(c1cc2c(s1)CCCC2)N1CCC2(CC1)OCCO2 | i

# Part of the list above, field by field:
O=C(Nc1cccc(-c2cnc3ccccc3n2)c1)c1cccs1
  Mtb growth = 11.0%
CS(=O)(=O)N(CC(=O)NC1CCCC1)c1cccc(Br)c1
  Mtb growth = i
CC(C)n1c(NCc2cccs2)nc2ccccc21
  Mtb growth = 3.6%

# (more compounds)
Compound | Mtb growth
CCOC(=O)N1CCN(C(=O)c2sc3cc(F)ccc3c2Cl)CC1 | 2.0%
COc1ccc(Cc2n[nH]c(=S)n2N)cc1 | i
Cc1ccccc1NS(=O)(=O)CCCCC(Cl)(Cl)Cl | 1.7%
CCOc1ccccc1/C=C(\C#N)c1nc2ccccc2c(=O)[nH]1 | i
CCc1c(C)sc(NC(=O)C(C)Oc2cccc(Cl)c2)c1C(=O)OC (stereo not drawn) | 1.6%
O=C(Nc1ccncc1)c1ccc(Cl)cc1Cl | i
Cc1cc(C(=O)Nc2cccc3ccccc23)c(C)o1 | i
CCOc1ccccc1N(CC(=O)Nc1cccnc1)S(=O)(=O)c1ccc(Cl)cc1 | i
COc1cc(C(=O)N2CCN(S(C)(=O)=O)CC2)cc(OC)c1OC | i
O=C(Nc1ccccc1N1CCOCC1)c1ccccc1[N+](=O)[O-] | 1.9%
Cc1cc(OCc2nc(-c3ccccn3)no2)c(C)cc1Br | i
Cc1ccccc1NC(=S)Nc1ccccc1Oc1ccccc1 | 1.9%
COc1ccc(C2CC(=O)C3=C(C2)Nc2ccc(C)cc2NC3c2cccs2)cc1 (stereo not drawn) | 9.8%
CCc1cccc(C)c1NC(=O)CSc1nnc(CNC(=O)c2ccccc2)n1C | i
Cc1ccc(C(=O)NCCC(c2ccccc2)c2ccccc2)cc1 | 6.3%
CCOc1cc(CNc2ccc(F)cc2)ccc1OCc1cccc(F)c1 | i
Cn1c(SCC(=O)Nc2ccccc2[N+](=O)[O-])nc2ccccc2c1=O | i
Cc1ccc(-c2nc(NC(=O)COc3ccc(C)c(C)c3)sc2C)cc1 | i
COc1ccccc1NC(CNS(=O)(=O)c1ccc(C)cc1)c1ccccc1 (stereo not drawn) | i
CCOc1ccc(C(=O)Nc2nnc(C(F)(F)F)s2)cc1OCC | i
c1cc(CN2CCC(N3CCCCCC3)CC2)ccn1 | i
S=c1[nH]cnc2scc(-c3ccc(Cl)cc3)c12 | 44.0%
c1ccc2c(c1)nc1c2ccc2[nH]onc21 | 3.2%
O=C(COc1cc2oc(=O)cc(-c3ccccc3)c2cc1Cl)c1cccc([N+](=O)[O-])c1 | 23.0%
CC1(C)Cc2nc(N3CCCC3)c(C#N)cc2CO1 | 1.6%
CCc1ccc(CCC(=O)Nc2cc(Cl)ccc2Cl)o1 | 2.4%
CC(C)c1ccc(C(=O)Nc2ccc(Cl)cc2Cl)cc1 | 14.5%
Cc1c(Cl)cccc1-c1ccc(C(=O)Nc2ccc(Cl)cc2F)o1 | i
COC(=O)c1ccc(NC(=O)NC(=O)C(F)(F)F)cc1 | i
CCn1c2ccccc2c2cc(CN3CCC(N4CCN(c5ccccc5OC)CC4)CC3)ccc21 | 22.4µg/mL*
C=CCNC(=O)c1ccccc1NC(=O)CN(c1ccc(Cl)cc1Cl)S(=O)(=O)c1ccccc1 | 3.2%
Cc1cc(Cl)ccc1OC(C)C(=O)N1C(C)CCCC1C (stereo not drawn) | i
COc1ccc(CN2C(=O)C(=O)c3cc(Br)ccc32)cc1 | 4.8%
CC1=NN(c2ccc(S(N)(=O)=O)cc2)C(=O)/C1=C\c1ccc(-c2ccc(S(N)(=O)=O)cc2)o1 | i
CCCCn1c(=N)c(C(N)=O)cc2c(=O)n3ccccc3nc21 | ?
CCc1ccccc1N1C(=O)c2cccc3c(N4CCOCC4)ccc(c23)C1=O | 2.2%
OCc1nc2ccccc2n1Cc1ccc(F)cc1 | i
COc1cccc(NC(=S)Nc2ccc(N(C)C)cc2)c1 | 2.5%
CCCn1c2ccccc2c2nnc(SCCN3CCCCC3)nc21 | i
Cc1c(Nc2nc(-c3ccc(Cl)cc3)cs2)c(=O)n(-c2ccccc2)n1C | i
CC1=C(C(=O)N2CCOCC2)C(c2c(F)cccc2Cl)C2=C(CCCC2=O)N1 (stereo not drawn) | i
COC(=O)c1ccc(C(=O)OC)c(NC(=O)c2cc3c(n(-c4ccccc4)c2=O)CC(C)(C)CC3=O)c1 | i
COc1ccc(OC)c(NC(=S)NCc2ccc(S(N)(=O)=O)cc2)c1 | i
Cc1ccc2nc3sc(C(=O)O)cc3cc2c1 | i
CCN(CC)c1ccc(NC(=O)Nc2ccc(OC)c(OC)c2)cc1 | 0.9%
Fc1ccc(-c2csc(-c3nc(-c4ccc(F)cc4)cs3)n2)cc1 | i
Cc1cc(C(=O)NC(=S)Nc2ccccc2N2CCCCC2)ccc1[N+](=O)[O-] | i
CCc1cc2c(NC3CCCC3)ncnc2s1 | i
CCOc1ccc(NC(=O)C2CC(=O)NC(Nc3ccc(OCC)cc3)=N2)cc1 (stereo not drawn) | i
NC(=O)c1ccc(NC(=O)CNS(=O)(=O)c2cc(Cl)ccc2Cl)cc1 | 0.1%
